Casp1 inh: allosteric or competitive inhibitors of human caspase-1; Caspase-1 enzyme, Ac-WEHD-AFC fluorogenic rate; Potency, µM (top dose mostly 57.5 µM), without a hit: top-dose activity change, negative = inhibition, actives largely listed as inhibitors; actives 0.03% (n = 75,000);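 further: potency means the concentration at half of the fitted maximal effect; plate controls were vehicle for no effect and no substrate for full effect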
Target sequence (P29466 120-297 limits assumed): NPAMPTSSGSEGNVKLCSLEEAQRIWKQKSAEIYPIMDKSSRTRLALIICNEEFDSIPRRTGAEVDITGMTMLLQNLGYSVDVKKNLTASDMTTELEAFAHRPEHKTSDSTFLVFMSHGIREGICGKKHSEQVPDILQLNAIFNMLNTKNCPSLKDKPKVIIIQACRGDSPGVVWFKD
Target sequence (P29466 317-404 limits assumed): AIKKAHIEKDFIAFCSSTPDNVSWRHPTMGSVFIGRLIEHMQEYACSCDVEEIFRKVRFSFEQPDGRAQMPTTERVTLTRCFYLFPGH
Pol III holo inh: inhibitors of bacterial DNA polymerase III holoenzyme | reconstituted DNA polymerase III holoenzyme replication, biochemical | Potency, µM (doses to about 57.1 µM), for inactives: at the highest dose activity change, negative = inhibition | actives 0.25% (n = 71,000); further: potency means the concentration at half of the fitted maximal effect; on the % scale 0 is the no-effect control and ±100 the full control effect
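Reconstituted *E. coli* holoenzyme (0.35 nM Pol III, 1 nM beta, 154 nM SSB, 2 nM primase) was preincubated with compound for 15 min at RT. Synthesis on 1.4 nM ssM13Gori ran 35 min, then was stopped with PicoGreen/EDTA and read as dsDNA fluorescence.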
Casp7 inh: caspase-7 (human) inhibition, allosteric or competitive. P55210. Potency, µM (top dose mostly 57.5 µM), for the others: top-dose activity change, negative = inhibition, actives largely listed as inhibitors. actives 0.02% (n = 75,000). recombinant caspase-7, Ac-DEVD-AFC fluorescence rate; active means well fitted inhibition curve with a large enough effect in the main read-out, with a control signal flat, not every such curve was filed as active; inconclusive means small, poorly fitted or top-dose-only effect, or a change in a side signal; further: potency means the concentration at half of the fitted maximal effect; % of control where 0% means no effect
Tau filament bind: binds recombinant human tau filaments; recombinant tau filaments, thioflavin S fluorescence, 15 h; filaments grown with octadecylsulfate alongside compound; actives 2% (n = 71,000); Potency, µM (series often up to 57.1 µM), for the others: at the highest dose activity change, negative = inhibition; P10636;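 further: potency means the concentration at half of the fitted maximal effect; on the % scale 0 is the no-effect control and ±100 the full control effect; actives lower thioflavin S fluorescence by blocking filaments or displacing dye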
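Quantitative HTS: thioflavine S signal from ODS-induced tau filaments, excited at 450 nm, emission 510 nm. Conditions: 1 uM tau, 30 uM ODS, 15 h at 37 C, pH 7.4.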
ALOX15 inhib: 15-hLO (ALOX15) enzyme inhibition. P16050. purified 15hLO-1, xylenol orange hydroperoxide absorbance. Potency, µM (titrated, usually from 57.1 µM), without a hit: at the highest dose activity change, negative = inhibition, most hits filed as inhibitors. actives 1.4% (n = 74,000). AID 887; further: potency means the concentration at half of the fitted maximal effect; on the % scale 0 is the no-effect control and ±100 the full control effect; nearly all actives have a fitted effect of over 55% in size
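Compounds were preincubated 15 min at room temperature with 40 nM purified human enzyme (25 mM Hepes pH 7.5, 0.01% Triton X-100); 50 uM arachidonic acid reacted 6 min. Fe-xylenol orange detection, 30 min, absorbance ratio 573/405 nm.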
BRCT inh red: BRCT-phosphoprotein interaction inhibition (red fluorophore); BRCT-phosphopeptide binding, red fluorescence polarization; Potency, µM (series often up to 76.9 µM), inactives show at the top dose activity change, negative = inhibition, actives largely listed as inhibitors; actives 0.03% (n = 75,000); AID 892; further: on the % scale 0 is the no-effect control and ±100 the full control effect
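Fluorescence polarization: 100 nM His-tagged BRCA1 BRCT with 100 nM TAMRA-labelled phospho-BACH1 decapeptide, phosphate buffer pH 7.3 with 150 mM NaCl, DTT, 0.01% Tween 20; 12 min RT. Binding inhibition seen as FP decrease.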
BRCT inh green: BRCA1 BRCT-phosphoprotein interaction inhibition; BRCA1 BRCT-phosphopeptide binding, green fluorescence polarization; P38398; Potency, µM (highest dose often 76.9 µM), without a hit: top-dose activity change, negative = inhibition, actives largely listed as inhibitors; actives 0.05% (n = 75,000);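 further: potency means the concentration at half of the fitted maximal effect; plate controls were peptide without protein for full effect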
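Compounds were incubated for 12 min at room temperature with a complex of 100 nM fluorescein-tagged pBACH1 decapeptide and 250 nM His-tagged BRCT protein. Buffer was phosphate pH 7.3 with EDTA, DTT and Tween 20. Disruption of binding lowers the polarization signal.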
USP2a inhib: USP2a (human) protease inhibition. O75604. USP2a enzymatic assay, qHTS inhibition. Potency, µM (series often up to 38.3 µM), inactives show top-dose activity change, negative = inhibition, hits mostly inhibitors. actives 0.1% (n = 60,000). AID 927;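 further: potency means the concentration at half of the fitted maximal effect; nearly all actives have a fitted effect of over 60% in size; plate controls were DMSO for no effect and NEM full inhibition control for full effect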
Target sequence (O75604 whole entry, looked up): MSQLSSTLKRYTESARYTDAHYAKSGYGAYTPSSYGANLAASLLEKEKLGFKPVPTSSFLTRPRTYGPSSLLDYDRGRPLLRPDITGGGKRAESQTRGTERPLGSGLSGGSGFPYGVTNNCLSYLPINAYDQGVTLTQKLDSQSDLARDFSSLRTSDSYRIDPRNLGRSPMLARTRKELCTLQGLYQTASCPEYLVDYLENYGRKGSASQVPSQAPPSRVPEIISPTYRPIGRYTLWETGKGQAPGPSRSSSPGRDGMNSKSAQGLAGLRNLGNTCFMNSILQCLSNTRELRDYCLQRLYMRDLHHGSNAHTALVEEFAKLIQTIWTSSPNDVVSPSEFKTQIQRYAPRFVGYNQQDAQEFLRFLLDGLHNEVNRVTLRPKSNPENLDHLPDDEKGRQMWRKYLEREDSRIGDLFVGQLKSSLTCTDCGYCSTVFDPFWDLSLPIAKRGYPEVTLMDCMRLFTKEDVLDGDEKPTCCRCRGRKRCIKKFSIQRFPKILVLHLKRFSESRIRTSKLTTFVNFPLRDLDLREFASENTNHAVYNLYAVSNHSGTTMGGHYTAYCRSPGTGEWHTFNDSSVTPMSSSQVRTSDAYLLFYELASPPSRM
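USP2 core (20 nM final) was preincubated with compound for 30 min at RT in 20 mM Tris-HCl pH 8.0, 2 mM CaCl2, 2 mM beta-mercaptoethanol; Ub-PLA2 (20 nM) plus NBD C6-HPC (20 uM) then added, fluorescence read after 2.5 h.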
HEK293 cAMP ctrl: counter-screen for TSHR agonists: cAMP increase in parental HEK293. actives 2.5% (n = 73,000). parental HEK293 CNG cAMP sensor, membrane potential fluorescence. Potency, µM (highest dose often 57.1 µM), for the others: at the highest dose activation, usual class: activators; further: potency means the concentration at half of the fitted maximal effect; % of control where 0% means no effect; nearly all actives have a fitted effect of over 55% in size
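Parental HEK 293 cells stably expressing a cAMP-gated CNG channel were loaded with membrane potential dye containing 100 uM RO 20-1724 for 60 min. Compound added for 30 min; depolarization read as fluorescence intensity at 590 nm.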
Rhodamine autofl: compound fluoresces in the rhodamine spectral region; Rhodamine-region fluorescence, 547/598 nm, Tris buffer; active compounds read high; max dye-equivalent concentration, M; actives 0.05% (n = 59,000); in the data active means max dye-equivalent concentration above about 11 nM; inconclusive means between about 1.1 nM and that limit
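A six-point rhodamine series on each plate calibrates the signal. Compounds sit in 100 mM Tris (pH 8.0) for 15 min at ambient temperature before imaging through 547 nm/598 nm filters.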
* hit, by the source's call; i = inactive; ? = inconclusive; · = no result given; [ ] = remark or other dose. Unless noted, the call rests on the fitted dose curve; in most records, active means well fitted curve in the direction sought with a large enough effect; inconclusive means small, poorly fitted or top-dose-only effect, or another doubt; inactive means no such curve, though single readings can be large; an effect the other way counts as inactive or inconclusive. An excerpt. The share of hits here may be higher or lower than overall.

#1 O=C(NCc1cccs1)C1CCCN(c2ncccn2)C1 (stereo unspecified)
#2 Cc1cccc(-n2c(=O)[nH]c3c(C(N)=O)nc(CC(C)C)nc32)c1
#3 CC(C)Sc1nc2sc3c(c2c2nnc(SCC(=O)NCc4ccco4)n12)CCCC3
#4 O=C(CSc1ccc2c(c1)OCCO2)NCc1ccco1
#5 Cc1ccc2c(c1)C(=O)[C@]1(O)CCN(c3ccccc3)C1=N2
#6 O=C(CSc1ccc(Cl)cc1)c1ccco1

screen / no.	1	2	3	4	5	6
Casp1 inh	0%	-1%	-5%	-1%	·	-1%
Pol III holo inh	-2%	5%	-4%	-9%	·	?
Casp7 inh	-1%	-2%	-10%	-7%	?	-14%
Tau filament bind	-21%	-7%	168%	6%	·	?
ALOX15 inhib	1%	-6%	?	-16%	?	16µM*
BRCT inh red	-1.1%	-0.7%	0.2%	-1.1%	0.2%	-5.1%
BRCT inh green	-2.5%	0.1%	12%	1.5%	9.5%	-4.9%
USP2a inhib	14%	15%	38%[activator]	34%[activator]	·	24%
HEK293 cAMP ctrl	?	-4%	?	3%	13%	12%
Rhodamine autofl	i	i	i	i	·	i

#7 O=C(NC1CCCCC1)N1CCCC(c2nc(-c3ccc(S(=O)(=O)N4CCCC4)cc3)no2)C1 (stereo unspecified)
#8 COC(=O)c1ccccc1N(C)S(C)(=O)=O
#9 CCC(=O)n1nc(-c2ccco2)nc1SCc1ccccc1
#10 CC(=O)C1=C(O)C(=O)N(CCC(=O)O)C1c1cccc(F)c1 (stereo unspecified)
#11 COc1cccc(OCCCCSc2ncccn2)c1
#12 CC1=C(C(N)=O)C(c2cccc(OCc3ccccc3)c2)n2nnnc2N1 (stereo unspecified)

screen / no.	7	8	9	10	11	12
Casp1 inh	1%	-1%	1%	-2%	-1%	1%
Pol III holo inh	-2%	-9%	-8%	-3%	3%	-3%
Casp7 inh	2%	2%	-2%	1%	-3%	-1%
Tau filament bind	-8%	10%	-3%	1%	2%	5%
ALOX15 inhib	8%	-15%	-8%	5%	?	5%
BRCT inh red	0.6%	0.0%	-5.7%	0.3%	0.0%	2.8%
BRCT inh green	-1.2%	-3.5%	3.3%	-2.6%	0.0%	-0.1%
USP2a inhib	6%	-5%	9%	-6%	-5%	2%
HEK293 cAMP ctrl	28%	6%	1%	7%	?	-1%
Rhodamine autofl	i	i	i	i	·	i

#13 CC1=C(C(=O)OCc2ccccc2)C(c2ccc([N+](=O)[O-])cc2)NC(=O)N1CCCCCC(=O)O (stereo unspecified)
#14 CN(CCc1ccc(Cl)c(Cl)c1)CCN1CCCCCC1
#15 COC(=O)c1ccc(C(=S)N2CCOCC2)cc1
#16 NS(=O)(=O)c1ccc(Nc2nc(-c3ccc(O)cc3)cs2)cc1
#17 COc1cc(NC(=O)c2ccc(Br)o2)c(C(=O)O)cc1OC
#18 CCSc1ccccc1C(=O)NCCCn1ccnc1

screen / no.	13	14	15	16	17	18
Casp1 inh	2%	0%	-2%	1%	0%	1%
Pol III holo inh	-6%	2%	7%	8%	-6%	-3%
Casp7 inh	2%	1%	-2%	1%	-1%	-1%
Tau filament bind	-9%	34%	-4%	17%	5%	0%
ALOX15 inhib	·	-1%[25.6 µM]	?	25µM*	5%	-23%
BRCT inh red	-0.8%	-1.1%	1.9%	-0.8%	4.2%	1.9%
BRCT inh green	-3.2%	2.9%	-1.6%	-4.8%	0.5%	-5.0%
USP2a inhib	·	·	2%	5%	-28%	-8%
HEK293 cAMP ctrl	24%	?	7%	-5%	12%	18%
Rhodamine autofl	·	·	i	i	i	i

Structures listed so far that bear a hit mark in ALOX15 inhib.
cpd	SMILES	Casp1 inh	Pol III holo inh	Casp7 inh	Tau filament bind	ALOX15 inhib	BRCT inh red	BRCT inh green	USP2a inhib	Rhodamine autofl
6	O=C(CSc1ccc(Cl)cc1)c1ccco1	-1%	?	-14%	?	16µM*	-5.1%	-4.9%	24%	i
16	NS(=O)(=O)c1ccc(Nc2nc(-c3ccc(O)cc3)cs2)cc1	1%	8%	1%	17%	25µM*	-0.8%	-4.8%	5%	i

The list continues:
#19 COc1ccc(OC)c(NS(=O)(=O)c2cccs2)c1
#20 COc1cccc(C(=O)Oc2cc(N)n(S(=O)(=O)c3ccc(C)cc3)n2)c1OC
#21 CN(C)C(=O)c1ccc(-c2cncnc2Nc2ccccc2)cc1
#22 CCn1c(N)c(C(=O)NCc2ccc3c(c2)OCO3)sc1=S
#23 CC(C)CNC(=O)CN(C1CCCCC1)S(C)(=O)=O
#24 Cc1cccc(-c2nsc(SCC(=O)NCc3ccco3)n2)c1

screen / no.	19	20	21	22	23	24
Casp1 inh	1%	-1%	-7%	-1%	0%	0%
Pol III holo inh	1%	0%	-6%	14%	-5%	2%
Casp7 inh	4%	-1%	-8%	0%	-1%	-1%
Tau filament bind	-14%	8%	5%	-1%	2%	6%
ALOX15 inhib	-5%	-9%	?	?	1%	-19%
BRCT inh red	0.4%	0.3%	1.5%	1.6%	0.5%	1.0%
BRCT inh green	-1.2%	1.5%	-0.1%	-4.3%	-1.4%	-1.4%
USP2a inhib	-4%	18%	-8%	13%	9%	3%
HEK293 cAMP ctrl	15%	-9%	-2%	-11%	?	28%
Rhodamine autofl	i	i	i	i	i	i

#25 COc1ccc(CNc2ncnc3ccc(-c4cccc(NS(C)(=O)=O)c4)cc23)c(OC)c1
#26 COc1cc(S(C)=O)ccc1-c1nc2ncccc2[nH]1 (stereo unspecified)
#27 CN(C1CCCCC1)S(=O)(=O)Cc1ccccc1
#28 COCC(=O)Nc1cc(OC)c(Cl)cc1OC
#29 CN(C)Cc1ccccc1-c1cncnc1NCc1ccccc1
#30 CCn1c(SCC(=O)Nc2ccc3c(c2)OCO3)nc2c(c1=O)SC(C)C2 (stereo unspecified)

screen / no.	25	26	27	28	29	30
Casp1 inh	0%	0%	-5%	0%	-1%	-2%
Pol III holo inh	-5%	-9%[25.6 µM]	-3%	-2%	0%	-2%
Casp7 inh	-6%	0%	0%	1%	2%	-1%
Tau filament bind	420%	-10%[25.6 µM]	?	-15%	-3%	-22%
ALOX15 inhib	3%	-6%	-28%	0%	?	-10%
BRCT inh red	1.7%	-6.5%	0.3%	-4.3%	-0.1%	-7.0%
BRCT inh green	-2.4%	0.0%[3.08 µM]	3.6%	-2.6%	2.2%	-3.8%
USP2a inhib	?	3%	38%[activator]	-5%	-8%	·
HEK293 cAMP ctrl	21%	4%[25.6 µM]	10%	5%	21%	20%
Rhodamine autofl	i	i	i	i	i	·

Ordered by value in Casp1 inh (falling): three of the compounds above
| No. | SMILES | Casp1 inh |
| --- | --- | --- |
| 25 | COc1ccc(CNc2ncnc3ccc(-c4cccc(NS(C)(=O)=O)c4)cc23)c(OC)c1 | 0% |
| 29 | CN(C)Cc1ccccc1-c1cncnc1NCc1ccccc1 | -1% |
| 30 | CCn1c(SCC(=O)Nc2ccc3c(c2)OCO3)nc2c(c1=O)SC(C)C2 (stereo unspecified) | -2% |

Next records follow:
#31 COc1ccc(CCN2C(=O)c3[nH]nc(-c4ccccc4O)c3C2c2cccc(O)c2)cc1OC (stereo unspecified)
#32 COc1ccc2[nH]c(-c3ccccc3)c(CCNC(C)=O)c2c1
#33 CCC(=O)Nc1sc(C(=O)OC)c(C)c1C(=O)OC
#34 O=C(Nc1ccc2c(c1)OCO2)c1ccc(S(=O)(=O)NCC2CCCO2)cc1 (stereo unspecified)
#35 CCCCC(=O)Nc1nnc(SCC(=O)N2CCN(c3ccccc3OC)CC2)s1
#36 Cc1onc(-c2ccccc2)c1C(=O)Nc1nnc(COc2ccc(Cl)cc2)s1

screen / no.	31	32	33	34	35	36
Casp1 inh	0%	0%	2%	-1%	1%	-4%
Pol III holo inh	-6%	-6%	7%	2%	-2%	0%
Casp7 inh	0%	1%	1%	0%	1%	-12%
Tau filament bind	49%	?	12%	-2%	-8%	3%
ALOX15 inhib	?	6%[25.6 µM]	-4%	4%	1%	7.9µM*
BRCT inh red	1.5%	1.2%	-1.8%	1.1%	1.6%	0.7%
BRCT inh green	0.9%	0.3%	-0.4%	-0.8%	-0.6%	-0.4%
USP2a inhib	73%[activator]	·	10%	3%	7%	49%[activator]
HEK293 cAMP ctrl	7%	-13%	?	-9%	3%	?
Rhodamine autofl	i	·	i	i	i	i

#37 Cn1nnc2cc(C(=O)NC3CCCCC3)ccc21
#38 CCOC(=O)C(C)Sc1nc2c(c(=O)[nH]c(=O)n2C)n1C/C=C(/C)Cl (stereo unspecified)
#39 CCc1nnc(NC(=O)C(C)Sc2ccccc2)s1 (stereo unspecified)
#40 CN(c1ccccc1)c1nc(-n2ccnc2)nc(-n2ccnc2)n1

screen / no.	37	38	39	40
Casp1 inh	-1%	-2%	-3%	-1%
Pol III holo inh	-1%	-1%	-2%	-7%
Casp7 inh	1%	0%	3%	1%
Tau filament bind	-1%	-1%	-14%	33%
ALOX15 inhib	-6%	-17%	8%	15%
BRCT inh red	-1.0%	-3.0%	-0.1%	-1.5%
BRCT inh green	0.5%	3.8%	-1.6%	3.0%
USP2a inhib	-5%	8%	·	21%
HEK293 cAMP ctrl	3%	12%	9%	23%
Rhodamine autofl	i	i	·	i

Screening data from PubChem.
